# ALR H2O2 inh – blocks human ALR sulfhydryl oxidase activity; P55789; purified ALR, DTT oxidation, H2O2 HRP-luminol luminescence; inhibition, % (no concentration beside the values); 290,000 tested, 3.8% active;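 active = mean and each replicate at 75% or more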;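 note: stock transfer was 7.5 nL into about 7.5 µL; 0% = neutral wells and 100% = wells with inactivated enzyme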
# AF4-AF9 inh – MLL-AF4/AF9 protein interaction inhibition | AID 651704 | P42568 | AlphaScreen, biotin-AF4 peptide binding to FLAG-AF9 | 350,000 tested, 0.47% active | inhibition, % at 10 µM;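 active = every replicate reaching a set inhibition limit, whatever the replicate mean, cut at about 25% in these data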;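 note: 0% = plate neutral control median and 100% = total signal loss; the record names both 10 and 1 µM as test concentration; the first replicate is given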
# Target sequence (P42568 whole entry, looked up): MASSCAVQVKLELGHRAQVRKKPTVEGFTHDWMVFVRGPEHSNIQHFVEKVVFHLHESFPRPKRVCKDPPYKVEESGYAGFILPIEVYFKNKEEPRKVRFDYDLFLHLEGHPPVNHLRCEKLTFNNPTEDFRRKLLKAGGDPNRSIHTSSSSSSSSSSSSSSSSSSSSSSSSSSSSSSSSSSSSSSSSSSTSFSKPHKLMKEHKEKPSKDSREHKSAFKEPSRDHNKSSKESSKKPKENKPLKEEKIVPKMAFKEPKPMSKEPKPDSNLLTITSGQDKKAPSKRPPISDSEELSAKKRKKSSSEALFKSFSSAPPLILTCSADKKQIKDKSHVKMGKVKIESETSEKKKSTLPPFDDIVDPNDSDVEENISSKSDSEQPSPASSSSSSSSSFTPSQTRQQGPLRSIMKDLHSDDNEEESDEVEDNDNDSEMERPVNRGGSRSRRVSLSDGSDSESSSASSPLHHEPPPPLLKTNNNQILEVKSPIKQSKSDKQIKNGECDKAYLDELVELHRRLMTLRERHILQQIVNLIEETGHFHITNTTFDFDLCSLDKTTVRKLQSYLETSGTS
# HNF4A DNA FP – change in binding of human HNF4 alpha to DNA; HNF4a-FITC DNA binding, fluorescence polarization, 1 h; 360,000 tested, 0.3% active; activity change, % at 10 µM; AID 1224865; in the data active = activity change above about 30%, passing the limit was not always enough;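 note: controls were the assay level and a saturating level of protein; the project sought stronger binding though the title names inhibitors; some compounds called inactive have numbers as strong as hits; positive values seem to mean higher polarization but the record does not say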
# Target sequence (P41235 whole entry, looked up): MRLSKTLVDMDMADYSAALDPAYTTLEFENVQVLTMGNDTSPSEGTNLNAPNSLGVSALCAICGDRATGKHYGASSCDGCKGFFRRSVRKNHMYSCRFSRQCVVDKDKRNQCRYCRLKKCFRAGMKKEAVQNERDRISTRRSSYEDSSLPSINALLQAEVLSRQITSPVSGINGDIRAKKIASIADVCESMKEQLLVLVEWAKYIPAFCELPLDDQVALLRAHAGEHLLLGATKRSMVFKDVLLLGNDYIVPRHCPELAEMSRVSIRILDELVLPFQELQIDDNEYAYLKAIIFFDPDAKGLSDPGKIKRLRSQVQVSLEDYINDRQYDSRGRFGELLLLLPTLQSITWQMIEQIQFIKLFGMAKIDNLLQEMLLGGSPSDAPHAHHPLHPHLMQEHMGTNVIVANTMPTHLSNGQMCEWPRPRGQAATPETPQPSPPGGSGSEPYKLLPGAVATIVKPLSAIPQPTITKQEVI
# rRNA inh HTS – inhibits bacterial ribosomal RNA function over humanized ribosomes | 350,000 tested, 1.6% active | GFP signal change (wild-type ribosome), % (test concentration not listed) | E. coli WT GFP vs humanized-ribosome RFP mutants, fluorescence, 24 h; active compounds read low; DMSO median 0, no signal -100 | AID 720706;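 active = significant combined selectivity score with lowered wild-type GFP, culture density cut under 30%, mutant RFP and density less affected; inactive = any of these conditions unmet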; note: one replicate is shown; some compounds called inactive have numbers as strong as hits
# FGF22 binding – shifts melting point of recombinant human FGF22; calls only at 9.99 µM; recombinant FGF22 thermal shift, SYPRO orange fluorescence; percent of sucrose octasulfate shift, DMSO zero; Q9HCT0; 340,000 tested, 1.5% active; AID 651658;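 active = melting point raised past a set limit in the mean and every replicate; three in four hits are not shown here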
# E coli growth – blocks Escherichia coli growth; OD600, 23 h; active compounds read low; 330,000 tested, 0.21% active; OD600 absorbance (no concentration beside the values); AID 1053175;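 active = OD600 absorbance below the run mean of sample wells minus 3.6 SD, in any replicate, cut at about 0.56 in these data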;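 note: stock transfer was 300 nL into about 60 µL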
# Vif A3G – inhibitors of Vif binding to APOBEC3G peptide, primary screen, biochemical, TR-FRET, GST-Vif 1-94, biotin-A3G peptide, dose response retest (AID 1117319) | TR-FRET GST-Vif / biotin-A3G peptide binding; higher % means a stronger effect; test concentration not given here; strong numbers were not always called active | 260,000 tested, 0.57% active | inhibition, %; hits with a dose series show IC50 in µM;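 active = above the screen mean plus three standard deviations and confirmed in dose response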;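 note: Vif residues 1-94 fused to GST binding biotinylated APOBEC3G peptide 110-148; 0% = full assay without inhibitor and 100% = GST in place of GST-Vif; retest series ran down from 100 µM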
# rRNA inh HTS OD600 – recorded beside rRNA inh HTS, whose call it bears; OD600 change, %; measured here: OD600 growth;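 optical density of the mix in the first replicate; 0 = DMSO median and -100 = no signal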
# rRNA inh HTS RFP – also measured in rRNA inh HTS; calls as there; RFP signal change, %; measured here: RFP humanized mutant strains;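 first replicate; 0 = DMSO median and -100 = no signal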
# * hit, by the source's call; i = inactive; · = not tested or not shown; & = joins results of further samples. These rows are one share of the data; rates above refer to the full screens.
SMILES,ALR H2O2 inh,AF4-AF9 inh,HNF4A DNA FP,rRNA inh HTS,rRNA inh HTS OD600,rRNA inh HTS RFP,FGF22 binding,E coli growth,Vif A3G
N#C[C@@H]1[C@@H](c2ccc(/C=C/c3ccccc3)cc2)[C@@H](CO)N1C(=O)C1CCCC1,·,-1.9,·,-0.7,3.4,-1.1,i,·,·
CC1CN(C(=O)c2ccc3c(c2)OCO3)CC(C)O1 (centres undefined),-11.8,·,0.0,·,·,·,·,0.683,-0.2%
CO[C@@H]1CN(C)C(=O)c2cc(NC(C)=O)ccc2OC[C@H](C)N(Cc2nccs2)C[C@@H]1C,·,-6.1,·,1.4,-0.8,-1.6,i,·,·
COc1ccc(N(CC(=O)N/N=C/c2ccccc2F)S(=O)(=O)c2ccccc2)cc1,-0.1,1.6,3.3,11.2,6.6,2.1,i,·,6.8%
Fc1cccc(Cn2cc(C(=S)N3CCOCC3)c3ccccc32)c1,24.4,7.2,-3.6,-15.0,-18.1,-2.0,i,0.737,-5.2%
COc1ccc(-n2c(SCC(=O)N3CCC(C(=O)O)CC3)nc3ccccc3c2=O)cc1OC,-7.6,3.1,4.1,·,·,·,i,0.642,·
Cc1cnn(-c2nc(-c3cccs3)cc(C(F)(F)F)n2)c1,13.3,·,0.7,·,·,·,·,0.627,-3.9%
CCCCc1nc2cc(C(=O)N3CCCCC3CCO)ccc2o1 (centres undefined),-15.2,-0.2,0.3,-3.2,-0.9,1.5,i,0.717,3.7%
O=C(NC1CCCCC1)c1cc2ccccc2cc1O,0.6,0.4,1.7,10.6,15.8,4.4,i,0.664,-4.8%
COc1cc(C2CC(=O)NC3=C2C(=O)CC(C)(C)C3)cc(OC)c1O (centres undefined),2.6,·,-1.1,·,·,·,·,0.679,4.9%
CN1CCN(C(=O)C[C@H]2CC[C@@H]3[C@H](COC[C@H](O)CN3C(=O)C3CCOCC3)O2)CC1,·,-13.4,·,5.3,14.2,8.5,i,·,·
CCN(CCCNC(=O)CN1C(=O)COc2ccccc21)c1cccc(C)c1,99.4*,·,1.6,·,·,·,·,0.654,-0.4%
CCn1ccc(C(=O)Nc2c(C)nn(Cc3c(F)c(F)c(F)c(F)c3F)c2C)n1,28.3,2.1,1.0,5.1,-1.8,-1.0,i,0.625,-3.9%
Cc1ccccc1OCC(=O)OCC(=O)c1ccc(-c2ccccc2)cc1,·,-1.4,-0.2,16.5,13.7,-1.9,i,0.712,·
O=[N+]([O-])c1ccc(Oc2cccc(Br)c2)c2ccncc12,-25.6,·,2.5,·,·,·,·,0.745,16.8%
N#C/C(C(=O)N1CCCCC1)=C1/N=C(NC(=O)c2ccc(F)cc2)c2ccccc21,2.8,4.7,3.4,-10.0,0.2,-4.8,i,0.649,-1.8%
Fc1ccccc1NC(=S)N1CCN(C/C=C/c2ccccc2)CC1,-1.7,·,-2.1,·,·,·,·,0.681,-0.1%
O=C(CSCc1ccccc1)N1CCN(c2cccc(C(F)(F)F)c2)CC1,-14.0,·,3.6,·,·,·,·,0.703,8.5%
O=C(c1cc2nc(-c3ccccc3)cc(-c3ccccc3)n2n1)N1CCCC1,-8.0,-2.7,5.3,6.1,1.2,1.3,i,0.708,-4.6%
C=C1CCN([C@H](C(=O)Nc2ccc(OC)cc2)C(C)C)S(=O)(=O)c2ccccc21,3.4,1.9,2.6,-3.5,-7.1,-5.2,i,·,·
CCCNC(=O)Nc1ccc2c(c1)OC[C@@H](C)N(C(=O)CC)C[C@H](C)[C@H](OC)CN(C)C2=O,·,-0.3,·,0.3,1.1,-1.7,i,·,·
COc1cc(NC(=O)CN(c2cc(C)cc(C)c2)S(=O)(=O)c2c(C)[nH]c(=O)[nH]c2=O)cc(OC)c1,-1.4,0.8,0.1,-13.9,-11.6,1.8,i,0.692,·
O=C(COC(=O)/C=C/c1ccc(Cl)cc1)NCc1cccs1,·,-4.8,3.0,4.2,1.7,5.5,·,·,-3.0%
CC(=O)c1cccc(NC(=O)c2cnn(-c3ccccc3)c2C)c1,-6.7,-6.8,-1.9,7.7,3.8,0.5,i,0.634,·
CC(=O)c1nn(-c2ccccc2)c(=Nc2ccccc2)cc1C,·,12.8,1.0,5.9,8.6,1.2,i,·,·
COc1ccc(/C=C2\SC(=S)N(CCCC(=O)N3CCN(C)CC3)C2=O)cc1,-0.9,21.4,1.8,-11.7,-9.4,-2.7,i,0.691,·
CCCCN(CC)CCNC(=O)c1cc2c(-c3ccc(Cl)cc3)nn(C)c2s1,-32.9,10.8,1.7,-9.0,-4.8,6.0,i,·,-12.3%
COCCNCC(O)CON=C1c2ccccc2-c2ccccc21 (centres undefined),-1.1,1.2,-9.8,-6.9,-5.3,3.8,i,0.676,9.5%
COc1ccc(NC(=O)N(C)C[C@H]2OCCCC[C@H](C)Oc3ccc(N(C)C)cc3C(=O)N([C@@H](C)CO)C[C@@H]2C)cc1,·,-3.4,·,-3.1,4.1,-0.7,i,·,·
CCCCNC(=O)c1cc(C)no1,-6.1,-3.8,-0.2,8.2,11.2,-0.6,·,0.684,4.2%
CCOC(=O)N1CCN(C(=O)C(=O)Nc2ccc3nc4n(c(=O)c3c2)CCCCC4)CC1,-8.4,-3.9,1.0,4.8,2.2,0.5,i,0.737,-5.0%
CC1CC(C)CN(S(=O)(=O)c2ccc(NC(=S)NC(=O)c3ccccc3)cc2)C1 (centres undefined),-5.3,·,0.8,·,·,·,·,0.676,-4.9%
O=C(/C=C/c1ccc([N+](=O)[O-])cc1)N(c1ccccn1)C1CCCCC1,·,7.1,-0.5,-8.8,-0.1,15.3,i,0.696,-1.9%
Cc1ccc(OCC(=O)Nc2ccc(S(=O)(=O)N3CCCC3)cc2)cc1,-2.3,0.8,1.2,-7.3,-6.6,1.4,i,0.671,·
Cc1ncc(N=Nc2ccccc2Cl)c(-c2ccccc2)n1,48.4,·,1.7,·,·,·,·,0.732,9.2%
CC(C)CNc1ncnc2c1sc1nc(N3CCOCC3)c3c(c12)CC(C)(C)OC3,-16.1,·,0.5,·,·,·,·,0.731,3.3%
CC1(C)Cc2c(ccc3ccccc23)C(=O)N1,-5.9,·,-1.1,·,·,·,·,0.697,-4.4%
CCOC(=O)c1sc(NC(=O)C2CC2)cc1C,-16.4,1.7,0.8,2.6,-9.1,-8.1,i,0.689,-3.4%
COc1cc(C(=O)NNC(=O)c2cc(S(=O)(=O)N(C)C)ccc2N2CCCC2)cc(OC)c1OC,-1.5,-3.6,-0.8,-3.6,-3.5,0.0,i,0.667,-9.3%
Cc1c(Cl)cccc1NC(=O)CSCC(N)=O,-3.8,·,-3.8,·,·,·,·,0.69,25.4%
Cc1ccn(C(=O)c2ccc(NC(=O)C3CCCCC3)cc2)n1,·,·,26.0,·,·,·,·,0.675,-8.2%
C=CCn1c(C)c(C(=O)OCC)c2cc(O)c3ccccc3c21,-7.2,0.7,0.7,4.7,1.2,0.0,i,0.721,-4.7%
Cn1c(SCC(=O)N2CCCCC2)nnc1-c1ccc(S(=O)(=O)N2CCOCC2)cc1,·,·,3.2,·,·,·,·,0.678,0.8%
C[C@@H]1CN([C@@H](C)CO)C(=O)Cc2cc(NC(=O)C3CCCCC3)ccc2O[C@@H]1CN(C)Cc1ccc(Oc2ccccc2)cc1,·,-1.1,·,2.3,-3.6,-0.4,i,·,·
C[C@@H]1CN([C@@H](C)CO)C(=O)c2cc(NC(=O)Nc3ccccc3)ccc2O[C@@H]1CN(C)Cc1ccncc1,·,-2.7,·,-2.0,-2.8,-0.6,i,·,·
COc1ccc(C(=O)Nc2ccc(N3CCOCC3)cc2)cc1S(=O)(=O)N1CCOCC1,·,0.9,-1.2,-1.2,2.7,-1.1,i,0.695,7.1%
COCCNC(=O)CSCc1cc(C)cc(C)c1,-1.6,-1.2,-4.4,4.7,-3.1,1.2,i,0.712,21.6%
CCC(=O)N1CCCCN2[C@H](C1)[C@H](c1ccc(/C=C/c3ccccc3)cc1)[C@@H]2CO,·,7.7,·,-58.0,-72.0,-14.8,i,·,·
N#C[C@H]1[C@H](c2ccc(C#CC3(O)CCCC3)cc2)[C@H](CO)N1C(=O)C1CCC1,·,-1.3,·,2.6,4.5,0.7,i,·,·
CCS(=O)(=O)N1Cc2cc(C(=O)NCCOC)nc(-c3cccc(-c4ccncc4)c3)c2[C@@H]1CCO,·,-13.3&-3.0,-2.4,0.8&3.2,2.2&1.9,0.1&-3.0,i,·,·
CCn1c2ccccc2c2cc(NC(=O)c3cccc([N+](=O)[O-])c3C)ccc21,·,6.4,4.5,10.1,2.7,4.7,i,0.704,-6.9%
COC(=O)c1ccc(C2c3c(oc4ccccc4c3=O)C(=O)N2CCCN2CCOCC2)cc1 (centres undefined),35.4,-1.6,-2.1,13.7,15.9,4.0,i,0.676,3.9%
O=C(CCNS(=O)(=O)c1ccccc1)NCCSc1ccc(Br)cc1,-3.1,-1.1,0.2,·,·,·,i,0.656,-1.3%
COc1ccccc1S(=O)(=O)N[C@@H]1C=C[C@@H](CC(=O)NCc2cc(F)cc(F)c2)O[C@H]1CO,·,-2.7,·,-0.4,-3.5,5.3,i,·,·
O=C(CS(=O)(=O)c1ccc(C(F)(F)F)cn1)NNC(=O)c1ccccc1,-2.3,-3.2,2.5,-2.7,0.4,-1.4,i,0.646,·
C[C@@H]1CN([C@@H](C)CO)C(=O)CCCn2cc(nn2)CO[C@@H]1CN(C)S(=O)(=O)c1ccc(-n2cccn2)cc1,·,-5.5,·,-1.1,0.3,1.1,i,·,·
Cc1ccsc1/C=C1/C(=O)NN(c2ccccc2)C1=O,72.6,-1.6,3.8,17.9,13.4,1.1,i,0.686,9.3%
CN(C)S(=O)(=O)c1ccc(C(=O)OCC(=O)NC(=O)NC2CCCC2)cc1,·,0.5,2.6,3.8,-1.9,-0.3,i,0.637,·
CC(Sc1nnnn1C1CC1)C(=O)Nc1cccc(S(=O)(=O)N2CCOCC2)c1 (centres undefined),·,-6.2,-3.1,5.1,8.8,1.7,i,0.649,-7.8%
Oc1c(C(c2ccccn2)N2CCCCC2)cc(Cl)c2cccnc12 (centres undefined),82.8*,57.7*,2.0,-43.0,-74.1,-27.1,i,0.652,·

# Other compounds.
SMILES,ALR H2O2 inh,AF4-AF9 inh,HNF4A DNA FP,rRNA inh HTS,rRNA inh HTS OD600,rRNA inh HTS RFP,FGF22 binding,E coli growth,Vif A3G
COc1ccc2c(c1)c(CC(=O)Nc1cc(C)ccc1C)c(C)n2C(=O)c1ccc(Cl)cc1,-2.6,·,2.9,·,·,·,·,0.748,3.0%
CCCCCc1ccc2cc(C#N)ccc2n1,·,2.2,0.4,-8.4,-6.7,-1.8,i,·,·
CN1C(=O)c2cc(NC(=O)C3CCOCC3)ccc2OC[C@H]2O[C@@H](CC(=O)NC3CCCC3)CC[C@H]21,·,-0.5,·,-0.3,2.5,1.0,i,·,·
Cc1ccc(-c2nc3c(C)cc(Br)cn3c2Cc2ccsc2)cc1,·,-5.4,-10.7,-25.9,-9.0,34.1,i,·,·
CC(=O)N1CC(=O)N2[C@H](CO)[C@H](c3ccc(C#CC(C)C)cc3)[C@@H]2C1,·,2.3,·,0.9,11.2,1.0,i,·,·
O=S(=O)(CCc1ccncc1)C1Cc2cccc3cccc1c23 (centres undefined),-4.7,0.8,-2.0,1.1,-3.8,0.2,i,0.613,19.2%
COc1ccccc1N1CCN(C(=O)C2CCN(S(=O)(=O)c3ccc4c(c3)CC(C)N4C(C)=O)CC2)CC1 (centres undefined),-0.4,1.1,1.3,-2.0,-3.5,1.5,i,0.695,-2.7%

# Screening data deposited in PubChem by several laboratories.
